# Ba CapD inh: Bacillus anthracis CapD inhibitors, primary screen, biochemical, fluorescence intensity | CapD gamma-glutamyltranspeptidase (Bacillus anthracis Ames Ancestor) | purified CapD enzyme, fluorescence intensity read-out; stronger effect = lower value; some hits fall short of the stated cut | z-score (no concentration beside the values) | 140,000 tested, 0.23% active;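 active = z-score under -4 in either of two replicates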;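 also: stock transfer was 100 nL into about 40 µL; score is relative to mean and spread of the plate; one replicate is shown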
# AID504770: growth inhibition of E. coli YBA685, primary screen, V. cholerae RctB inhibitors; E. coli YBA685 rctB-dependent plasmid, OD600 growth, 3 h; stronger effect = lower value; z-score (concentration not given with the values); 130,000 tested, 0.27% active;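 active = z-score under -2 on both plates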;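 also: wells of about 30 µL received 100 nL stock; score is relative to mean and SD of the test wells; the first replicate is given; strong numbers were not always called active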
# An asterisk follows results filed as active; / = not tested or not shown; & = joins results of further samples.
SMILES,Ba CapD inh,AID504770
N=c1oc2ccccc2cc1C(=O)Nc1ccc(Cl)cc1Cl,-0.495,0.35&0.35
CC(=O)N/C(=C\c1ccccc1)C(=O)O,-0.115,1.9
Cc1ccc(/C=C2\CC(C)CC3=C2NC(=S)NC3c2ccc(C)cc2)cc1 (stereo not given),-0.595,-1.05
Cc1noc(C)c1COc1ccc(C(=O)OCC(=O)N2CC(=O)Nc3ccccc32)cc1,/,1.3
Cc1cc(N(C(=O)c2cc3c(s2)CCC3)C(=O)c2cc3c(s2)CCC3)no1,/,2
Cc1ccc(S(=O)(=O)Nc2cc(S(=O)(=O)O)c(N)c3c2C(=O)c2ccccc2C3=O)cc1,-0.76,/
Cc1cc2c(cc1S(=O)(=O)N1CCN(c3ccccc3)CC1)OCCN2C,2.71,-0.25
COc1ccc(COC(=O)C2=C(C)NC3=C(C(=O)CCC3)C2c2cc3c(cc2[N+](=O)[O-])OCO3)cc1 (stereo not given),6.22,/
CCOC(=O)c1[nH]c(C)c(CN(Cc2ccccc2)S(=O)(=O)CC)c1C,-0.275,-0.45
CCN(CC)CCOCCOC(=O)C1(c2ccccc2)CCCC1,1.4&-2.34,-0.15
COc1cc2c(cc1OC)C(C)N(S(C)(=O)=O)CC2 (stereo not given),-0.135,/
COc1ccc(-c2csc3ncnc(NCCO)c23)cc1,0.24,0.1
Cc1nnsc1C(=O)O/N=C1\CCSc2ccc(F)cc21,0.485,/
COc1ccccc1NC(=O)N(Cc1cccc(Cl)c1)c1ccc2[nH]c(C(C)(C)C)cc2c1,0.065,/
O=C(CC1CCCCC1)NCc1cn2ccsc2n1,0.16,-0.45
O=C(Cn1c(=O)c(F)cn(C2CCCO2)c1=O)Nc1cccc(I)c1 (stereo not given),/,0
Cn1c(CC(N)=S)nc2ccccc21,/,0.95
CSCCC1C2=C(CC(C)(C)CC2=O)Nc2c1c(C)nn2-c1nc2ccccc2s1 (stereo not given),/,0.3
NC(=O)CCCc1nc(-c2ccccc2)no1,-0.775,-0.35
COc1ccc(-n2nnc3c(=O)n(CC(=O)NCC4CCCO4)cnc32)cc1 (stereo not given),0.135,2
c1ccc(-c2cc3n(c2)CCc2ccccc2-3)cc1,/,-0.45
CC1=C(c2sc(-c3ccccc3)nc2-c2cccs2)C(=O)OC1,/,1.1
CCSC1=NCCN1C(=O)c1ccc2c(c1)OCO2,/,-1.4
COc1cccc(Nc2nnc(SCC(=O)c3cc(C)n(C)c3C)s2)c1,/,-0.65
CCC(C(=O)NNC(=O)c1ccccc1N)c1ccccc1 (stereo not given),65,/
O=c1c2ccccc2[nH]c(=S)n1C1CC1,-0.55,0.15
COCCn1c(O)c(/C(C)=N/c2sc3c(c2C#N)CCC3)c(=O)[nH]c1=S,/,0.15
Cc1ccc(CNC(=O)c2ccc(CN(Cc3ccccc3)C(=O)Nc3ccccc3)o2)o1,38.3,1.35
NNC(=O)c1cc2ncc(C(F)(F)F)cc2s1,0,-0.15
CSC(=C(C#N)C#N)N1CCOCC1,/,0.25
COC(=O)Nc1ccc2c(c1)CCCN2S(=O)(=O)c1ccc(C)cc1,/,0
COc1ccc(NCC(O)CSc2ccc(OC)cc2)cc1 (stereo not given),0.1,-1.05
Cn1c(=O)c2nc(SCC(N)=O)n(C)c2n(C)c1=O,/,-1.25
COC(=O)c1ccccc1NC(=O)C(F)(F)Oc1ccc(C(C)(C)C)cc1,0.245,/
Cc1ccccc1OCCC(=O)O,-0.05,-0.4
CNC(=S)N/N=C(/N)c1ccccn1,-0.225,/
c1ccc(-c2nnc(OCc3cccnc3)c3ccccc23)cc1,-0.085,-0.05
CCN(CC)C(=O)Cn1c(=O)cc(C)c2c(C)nn(-c3cccc(F)c3)c21,-0.06,-0.55
O=c1cc(O)c2c(n1-c1ccccc1)CCCCC2,0.07,0.45
COc1ccc2c(c1)c1ncn(CCN3CCN(Cc4ccccc4)CC3)c(=O)c1n2C,32.4,0.8
Cc1ccc2[nH]cc(CCNC(=O)CN3CCCn4nc(C)cc43)c2c1,0.375,-0.4
O=C1NCCCCC1NS(=O)(=O)c1cc(Br)ccc1Br (stereo not given),0.085,/
NC(=O)C1CCN(C(=O)c2ccc3c(=O)n(C4CCCCC4)c(SCc4ccccc4F)nc3c2)CC1,-0.24,/
O=C(NCc1ccccn1)c1ccc2c(c1)[nH]c(=S)n1c3ccccc3nc21,1.71,/
COCc1cc(C)nc(SCC(=O)N(c2ccccc2)c2ccccc2)c1C#N,0.29,/
CC(=O)N1C(=O)CC(C)N(C(C)=O)c2ccccc21 (stereo not given),0.11,-2.5
O=S(=O)(c1ccc(F)cc1)n1cccc1,/,-0.3
COc1ccc(Cl)cc1N1C(=O)CSC1c1cc2c(cc1[N+](=O)[O-])OCO2 (stereo not given),0.44,/
CC(C)(C)OC(=O)N1CCCN(S(=O)(=O)c2ccc3c(c2)CCO3)CC1,0.695,0.5
Cc1cc(C(=O)COC(=O)/C=C/c2cccs2)c(C)n1C1CC1,/,0.1
# More results follow.
SMILES,Ba CapD inh,AID504770
CCC(=O)C(Cc1ccc(Cl)cc1Cl)c1ccnc2nc(N)nn12 (stereo not given),8.79,/
CC1CC2=C(CC1(CO)CO)C(C)(C)CCC2 (stereo not given),-0.045,-0.6
O=C(CCn1cnc2onc(-c3ccc(F)cc3)c2c1=O)N1CCCCCC1,-1.27,0.75
CSc1nccc(-c2c(-c3ccc(Cl)cc3)noc2C)n1,9.66,-1.05
Cc1ccc(NC(=O)c2sc3ncn(CC(=O)Nc4cccc(C(F)(F)F)c4)c(=O)c3c2C)cc1F,0.06,/
CN(C)c1ccc(NC(=S)c2ccccn2)cc1,/,-1.2
CCOC(=O)c1c[nH]c2c(F)cc(F)cc2c1=O,0.525&-0.705,0.25&-0.25
N#Cc1c(N)nc2c3c1NC(O)(c1ccccc1)C(C#N)C3c1cc(Br)ccc1O2 (stereo not given),0.65,-0.35
O=C(c1cnccn1)N(c1ccccc1)C1(C(=O)NC2CCCCC2)CCCCC1,-0.095,-0.2
O=C(Sc1ccc(C(F)(F)F)cn1)c1ccc(C(F)(F)F)cc1,-0.09,0.2
Cc1snc(S(=O)(=O)/C(C#N)=N\Nc2ccc(Cl)cc2)c1C#N,-2.45,/
Cc1cc(=O)oc2cc(OC(=O)CSC(=N)N)ccc12,60,-0.7
COC(=O)c1ccc2c(=O)n(CCc3ccc(S(N)(=O)=O)cc3)c(SCc3cc(F)cc4c3OCOC4)nc2c1,0.505,/
Cc1cc(C)nc(N2CCN(C(=O)CCC(=O)NCc3cccc(C(F)(F)F)c3)CC2)n1,0.365,/
COc1c2occc2cc2ccc(=O)oc12,0.34&-1.07,-0.55
O=C(NCCSCc1cc2cccc3c2n(c1=O)CCC3)c1cc(Cl)nc(Cl)c1,-0.61,/
Cc1nc(C)c(Oc2cccc(C(F)(F)F)c2)c(=O)[nH]1,0.58,-0.4
CCOC(=O)c1c(/N=c2\oc3ccccc3cc2C(N)=O)sc2c1CCCC2,-0.015,/
COC(=O)c1ccc(C(=O)N2CCOCC2)cc1,-0.565,-0.05
O=C(COc1ccccc1)NCC(=O)NC1CCCCC1,/,-1.05
Cc1cc(/C=C2/C(=N)N3C(=NC2=O)SN=C3S(=O)(=O)CC(C)C)c(C)n1-c1ccc(F)cc1,0.245,0.4
CCc1c(C)sc(NC(=O)CN2CCN(c3ncccn3)CC2)c1C(=O)OC,0.825,0.85
CCOc1ccccc1N/C(SCc1ccccc1C)=C(/C#N)C(=O)NCc1ccccc1,-0.215,/
CCN(CC)P1(=O)COc2ccccc2OC1,0.505,0.15
O=C(Nc1cc2c3c(c1)CC(=O)N3CCC2)c1ccccc1,/,0.2
O=C(NCCSc1ccccc1)c1cc(-n2cnnc2)ccc1Cl,-0.575,1.35
CCc1ccc(N/C(SCc2ccc(C)cc2C)=C(/C#N)C(=O)NCc2ccco2)cc1,-0.27,/
O=c1[nH]c2ccc(Br)cc2c(-c2ccccc2)c1CN1CCOCC1,-0.64,-0.9
N#Cc1ccsc1NC(=O)CC1(CC(=O)O)CCCC1,/,-0.05
CC(=O)c1ccc(S(=O)(=O)NCCCN2CCCC2=O)cc1,-0.635,/

# Looked up above:
# `O=C(c1cnccn1)N(c1ccccc1)C1(C(=O)NC2CCCCC2)CCCCC1` | AID504770 = -0.2
# `Cc1cc(C)nc(N2CCN(C(=O)CCC(=O)NCc3cccc(C(F)(F)F)c3)CC2)n1` | Ba CapD inh = 0.365
# `COC(=O)c1ccc(C(=O)N2CCOCC2)cc1` | Ba CapD inh = -0.565
# `O=C(NCCSc1ccccc1)c1cc(-n2cnnc2)ccc1Cl` | Ba CapD inh = -0.575

# Next section.
SMILES,Ba CapD inh,AID504770
Cc1nn(Cc2ccccc2)c(Cl)c1C(=O)OCc1nc2ccc(Cl)cc2n1CCO,/,-0.95
Cc1cccc(NC(=O)Cn2c(C(F)(F)F)nc3ccccc32)c1,0.085,1.8
Cc1cc(CN2CC(C)OC(C)C2)cc(C)c1O (stereo not given),-0.645,/
CCOC(=O)c1cc(C)nc(Sc2ccccn2)c1C#N,68.8,-0.1
Cn1c(CN2C(=O)CSc3ccc(C(F)(F)F)cc32)nnc1SCc1ccccc1,0.425,1
CCc1ccc(C(=O)c2c(S(=O)(=O)CC)c(S(=O)(=O)CC)c3cc(C(C)(C)C)ccn23)cc1,0.12,-0.05
O=c1cc(-c2ccccc2)[nH][nH]1,-0.23&0.165,-0.7&-0.4
COc1cc2nc(SCC(=O)NC3CC3)n(CCC3=CCCCC3)c(=O)c2cc1OC,/,-0.15
Cn1ncc(SCC(=O)O)c(Cl)c1=O,/,-0.6
O=S(=O)(c1ccccc1)N1CCN(C(c2ccccc2)c2ccccc2)CC1,-0.22,1.75
COC(=O)c1sccc1Oc1nc(SC)nc2c1cnn2-c1ccccc1,0.155,/
Cc1cccc(N2CCN(c3cc(NCCO)c([N+](=O)[O-])c4nonc34)CC2C)c1 (stereo not given),-1.31,/
N#CC1(C(=O)O)CCCC1,/,-0.25
Cc1[nH]nc2nc(SCc3cc(=O)n4ccccc4n3)n(-c3ccc(Oc4ccccc4)cc3)c(=N)c12,2.43,/
CC(N)C(O)c1ccc(O)c(O)c1 (stereo not given),-0.425,/
Cc1oc2ccc(O)c(CN(C)Cc3ccccc3)c2c1C(=O)NCc1ccccc1,0.245,0.1
Brc1ccc(-c2nnc3sc(CNCc4ccc5c(c4)OCO5)cn23)cc1,0.605,0.65
COc1ccc(CCNc2nc(SCc3cc(=O)n4ccccc4n3)nc3ccccc23)cc1OC,0.195,/
CC(C)NC(=O)c1cccc(Cl)c1,0.445,-0.55
O=c1[nH]cc(N=Cc2ccncc2)c(=O)[nH]1,-0.36,-0.4
COCC(=O)N(Cc1cc2cc3c(cc2nc1Cl)OCO3)CC1CCCO1 (stereo not given),/,0.05
Cc1ccc(OC(=O)C23CC4CC(CC(C4)C2)C3)cn1,/,0.95
COc1ccc(CCn2c(-c3ccc(Cl)cc3)csc2=Nc2ccc(F)cc2)cc1OC,2.92,/
COC(=O)C1=C(C(=O)OC)SC(=C2C(=S)C(C)(C)N(C(=O)CN3C(=O)CCC3=O)c3cc(OC)ccc32)S1,-0.08,/
O=C(CSc1cccs1)NC1Cc2ccccc2C1,-0.155,/
N#Cc1ccc(Oc2ccc(F)cc2)cc1,0.155,-0.15
Cc1cc(NC(=O)NCC(O)c2ccccc2)c(C(F)(F)F)o1 (stereo not given),-0.19,-0.8
CCOc1ccccc1C(=O)NCC(=O)N1CCC(C)CC1,/,-0.85
Cc1ccc(N2COc3ccc4c(C)cc(=O)oc4c3C2)c(C)c1,37,/
COc1cc(CN2CCC(Cc3ccccc3)CC2)cc(OC)c1O,0.6,0.05

# Retrieved one by one from the entries so far:
SMILES,Ba CapD inh,AID504770
COCC(=O)N(Cc1cc2cc3c(cc2nc1Cl)OCO3)CC1CCCO1 (stereo not given),/,0.05
Cc1ccc(OC(=O)C23CC4CC(CC(C4)C2)C3)cn1,/,0.95
Cc1ccc(N2COc3ccc4c(C)cc(=O)oc4c3C2)c(C)c1,37,/
Cc1cc(NC(=O)NCC(O)c2ccccc2)c(C(F)(F)F)o1 (stereo not given),-0.19,-0.8
COC(=O)C1=C(C(=O)OC)SC(=C2C(=S)C(C)(C)N(C(=O)CN3C(=O)CCC3=O)c3cc(OC)ccc32)S1,-0.08,/
O=C(CSc1cccs1)NC1Cc2ccccc2C1,-0.155,/

# The results go on:
SMILES,Ba CapD inh,AID504770
COc1ccc(N2CCN(C(=O)N3c4ccccc4Sc4ccccc43)CC2)cc1,0.22,1.1
COc1cc(OC)nc(CSCCNC(=O)CN(C)OC)n1,-0.145,/
CCC(=O)NCCc1nc2ccccc2n1CC(=O)c1ccccc1,0.215,2
Cc1cc(C)nc(Sc2nnc(C)c3ccccc23)n1,-0.09,/
Cc1cc(N2CCCC2c2nc3ccccc3s2)n2ncnc2n1 (stereo not given),/,-2.4
FC(F)(F)c1ccc(-c2[nH]ncc2-c2ccncn2)cc1,-0.42,/
O=C(Oc1ccc(-c2nnco2)cc1)C1CCN(S(=O)(=O)c2ccccc2C(F)(F)F)CC1,/,-0.45
CCOC(=O)CSc1nc2ccc(OCC)cc2[nH]1,/,1.25
O=C(O)COc1cc(C(F)(F)F)cc(C(F)(F)F)c1,/,-0.4
CCOC(=O)c1cc2cccc(NS(=O)(=O)c3ccccc3)c2[nH]1,0.415,/
CN(CC(O)c1ccccc1)S(=O)(=O)c1ccc(Oc2cccc(Cl)c2C#N)cc1 (stereo not given),-1.59,/
CCCCN(CC)C(=O)CSc1nc2ccccc2c(=O)n1CC1CCCO1 (stereo not given),0.71,/
Cc1ccc(NC(=O)/C(C#N)=N/Nc2ccc(C(=O)O)cc2)c(C)c1,/,-0.1
Cc1ccc2nc(NC(=O)C(C)(C)C)[nH]c(=O)c2c1,0.605,/
C#C[C@]1(O)CC[C@H]2[C@@H]3CCC4=Cc5oncc5C[C@]4(C)[C@H]3CC[C@@]21C,0.28,/

# Assay outcomes from PubChem.
